High-throughput results as filed in PubChem BioAssay.
Vaccinia inh = blocks a specific stage of Vaccinia orthopoxvirus infection, primary screen, cell-based, single point; Vaccinia-infected cells, mCherry/Venus stage reporter fluorescence; active compounds read low; some inactives read as strong as hits; activity change (mCherry), % (test concentration not listed); actives 0.01% (n = 89,000); AID 1053133, 2014;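 active = mCherry past -33% and 40 or more points under the early reporter, replicates agreeing; inconclusive = past -33% without that gap or agreement; tested in A549 cells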;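 also: scaled between vehicle wells and reference inhibitor wells; 23 nL library stock went into each well; one replicate is shown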
Vaccinia inh Venus = also measured in Vaccinia inh; calls as there; activity change (Venus), %; measured here: Venus reporter, other viral stage;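 negative = less Venus signal; first of two replicates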
Active calls of the source: *; ? = inconclusive; . = not tested or not shown. These rows are one share of the data, so the mix of outcomes need not match the whole.

SMILES	Vaccinia inh	Vaccinia inh Venus
C[C@H](CO)N1C[C@H](C)[C@@H](CN(C)S(=O)(=O)c2cn(C)cn2)OCCCC[C@H](C)Oc2ccc(NC(=O)Nc3ccc4c(c3)OCO4)cc2C1=O	17	11
O=C(C[C@@H]1C=C[C@H](NC(=O)Cc2cccnc2)[C@H](CO)O1)NCc1ccc2c(c1)OCO2	9	7
C/C=C/c1ccc([C@@H]2[C@@H](CO)N[C@@H]2CN(CC)C(=O)CN2CCOCC2)cc1	-17	-5
C[C@@H]1CN([C@H](C)CO)C(=O)c2cccc(NS(=O)(=O)c3cn(C)cn3)c2O[C@H]1CN(C)S(=O)(=O)c1cccs1	4	-3
COc1ccc(S(=O)(=O)N(C)C[C@H]2Oc3ccc(NC(=O)Nc4ccc(C(F)(F)F)cc4)cc3C(=O)N([C@@H](C)CO)C[C@H]2C)cc1	?	.
CO[C@@H]1CN(C)C(=O)c2ccc(NS(=O)(=O)c3cccc(F)c3)cc2OC[C@H](C)NC[C@@H]1C	18	21
COc1ccc(NC(=O)Nc2ccc3c(c2)CC(=O)N([C@H](C)CO)C[C@@H](C)[C@@H](CN(C)Cc2ccc(C(=O)Nc4ccccc4N)cc2)O3)cc1	6	-1
O=C(c1ccncc1)N1C[C@H]2[C@@H](c3ccccc31)[C@H](CO)N2Cc1ccccc1F	8	11
COc1ccc(NC(=O)Nc2ccc3c(c2)C(=O)N([C@H](C)CO)C[C@H](C)[C@H](CN(C)C(=O)Nc2cccc4ccccc24)OCCCC[C@H](C)O3)cc1	28	13
C[C@H]1CN([C@@H](C)CO)C(=O)Cc2cc(NC(=O)Cn3cnnn3)ccc2O[C@@H]1CN(C)C(=O)NC1CCCCC1	38	16
C[C@@H]1CCCCO[C@@H](CN(C)C(=O)C2CCCCC2)[C@@H](C)CN([C@@H](C)CO)C(=O)c2cc(NC(=O)NC3CCCCC3)ccc2O1	-12	-19
C[C@@H]1CN([C@@H](C)CO)C(=O)c2cc(NC(=O)Cn3cnnn3)ccc2O[C@@H]1CN(C)Cc1ccc(-c2ccccc2)cc1	-17	-10
COc1ccccc1-c1ccc([C@@H]2[C@@H](C#N)N(C(=O)NC3CCCCC3)[C@@H]2CO)cc1	?	.
CCS(=O)(=O)N1CC2(CN(CC3CCOCC3)[C@@H](CO)c3c2c2ccc(OC)cc2n3C)C1	17	13
C[C@H]1CN([C@@H](C)CO)C(=O)c2cc(C#CC(C)(C)O)cnc2O[C@H]1CN(C)C(=O)C1CC1	4	2
COc1ccccc1NC(=O)N[C@H]1C=C[C@H](CC(=O)N2CCC(Cc3ccccc3)CC2)O[C@@H]1CO	-24	-21
C[C@@H]1CN([C@H](C)CO)C(=O)Cc2cc(NC(=O)Nc3ccc4c(c3)OCO4)ccc2O[C@H]1CN(C)CC1CCCCC1	-29	-26
C[C@@H]1CN([C@H](C)CO)S(=O)(=O)c2ccc(C3=CCCCC3)cc2O[C@H]1CN(C)Cc1ccccc1F	?	.
C[C@@H]1CN([C@H](C)CO)C(=O)c2cc(NC(=O)NC3CCCCC3)ccc2O[C@H]1CN(C)Cc1ccc(C(=O)O)cc1	0	1
C[C@@H]1CN([C@@H](C)CO)C(=O)c2cc(NS(=O)(=O)c3cccs3)ccc2O[C@@H](C)CCCCO[C@H]1CN(C)S(=O)(=O)c1cccs1	-12	-11
CC(C)CC#Cc1ccc2c(c1)O[C@H](CN(C)C(=O)c1ccccn1)[C@@H](C)CN([C@H](C)CO)S2(=O)=O	5	-9
C/C=C/c1cnc2c(c1)C(=O)N([C@@H](C)CO)C[C@H](C)[C@@H](CN(C)C(=O)Cc1cccnc1)O2	21	10
C[C@@H]1CN([C@H](C)CO)C(=O)c2cc(NC(=O)CCCN(C)C)ccc2O[C@@H]1CN(C)Cc1ccncc1	6	9
COCCNC(=O)C[C@@H]1C=C[C@@H](NS(=O)(=O)c2ccc(C)cc2)[C@H](CO)O1	6	8
CO[C@H]1CN(C)C(=O)c2cc(NC(=O)NC3CCCCC3)ccc2OC[C@@H](C)N(CC2CCOCC2)C[C@@H]1C	-10	-11

Some of the entries so far, as a markdown table.
| molecule | Vaccinia inh | Vaccinia inh Venus |
| --- | --- | --- |
| O=C(C[C@@H]1C=C[C@H](NC(=O)Cc2cccnc2)[C@H](CO)O1)NCc1ccc2c(c1)OCO2 | 9 | 7 |
| C/C=C/c1ccc([C@@H]2[C@@H](CO)N[C@@H]2CN(CC)C(=O)CN2CCOCC2)cc1 | -17 | -5 |
| C[C@@H]1CN([C@H](C)CO)C(=O)c2cccc(NS(=O)(=O)c3cn(C)cn3)c2O[C@H]1CN(C)S(=O)(=O)c1cccs1 | 4 | -3 |
| COc1ccc(S(=O)(=O)N(C)C[C@H]2Oc3ccc(NC(=O)Nc4ccc(C(F)(F)F)cc4)cc3C(=O)N([C@@H](C)CO)C[C@H]2C)cc1 | ? | . |
| CO[C@@H]1CN(C)C(=O)c2ccc(NS(=O)(=O)c3cccc(F)c3)cc2OC[C@H](C)NC[C@@H]1C | 18 | 21 |
| COc1ccc(NC(=O)Nc2ccc3c(c2)CC(=O)N([C@H](C)CO)C[C@@H](C)[C@@H](CN(C)Cc2ccc(C(=O)Nc4ccccc4N)cc2)O3)cc1 | 6 | -1 |

Following part
SMILES	Vaccinia inh	Vaccinia inh Venus
Cc1noc(C)c1NC(=O)N(C)C[C@@H]1Oc2ccc(NC(=O)Cc3cn(C)c4ccccc34)cc2CC(=O)N([C@@H](C)CO)C[C@H]1C	3	3
CCCNC(=O)Nc1ccc2c(c1)C(=O)N(C)[C@H]1CC[C@@H](CC(=O)NCCCN(C)C)O[C@@H]1CO2	3	12
COc1ccc(NC(=O)Nc2ccc3c(c2)C(=O)N([C@@H](C)CO)C[C@H](C)[C@@H](CN(C)S(=O)(=O)c2ccccc2)OCCCC[C@H](C)O3)cc1	-12	-12
C[C@H](CO)N1C[C@H](C)[C@H](CN(C)S(=O)(=O)c2cn(C)cn2)Oc2ccc(NC(=O)Cc3cn(C)c4ccccc34)cc2CC1=O	12	10
Cc1cc(C(=O)Nc2cccc3c2O[C@@H](CN(C)S(=O)(=O)c2cn(C)cn2)[C@H](C)CN([C@H](C)CO)C3=O)n(C)n1	22	15
C[C@@H]1CN([C@H](C)CO)C(=O)c2cc(NC(=O)Cc3ccccc3)ccc2O[C@H]1CN(C)CC1CCCCC1	-6	-6
COC(=O)[C@]1(Cc2ccccc2N=[N+]=[N-])N=C(c2ccc(OCCCO)cc2)O[C@@H]1c1ccccc1	?	.
C[C@H](CO)N1C[C@H](C)[C@H](CN(C)CC2CCCC2)OCc2cnnn2CCCC1=O	8	-5
COc1ccc(NC(=O)Nc2ccc3c(c2)C(=O)N([C@H](C)CO)C[C@@H](C)[C@@H](CN(C)C(=O)NC2CCCCC2)OCCCC[C@H](C)O3)cc1	11	10
O=C(C[C@@H]1CC[C@H]2[C@@H](COC[C@@H](O)CN2Cc2ccncc2)O1)NCc1ccccc1Cl	12	4
C[C@@H]1CN([C@@H](C)CO)C(=O)Cc2cc(NC(=O)Nc3ccccc3)ccc2O[C@H]1CN(C)S(=O)(=O)c1ccc(Cl)cc1	6	9
C[C@@H]1CN([C@@H](C)CO)C(=O)c2cc(C3=CCCC3)cnc2O[C@@H]1CN(C)Cc1ccccc1C(=O)O	24	21
COc1cccc(CN2[C@H](CO)[C@@H](c3ccccc3)C23CN(C(=O)C2CCCC2)C3)c1	-14	4
C[C@@H]1CN([C@@H](C)CO)C(=O)c2cc(NC(=O)CCC(F)(F)F)ccc2O[C@@H](C)CCCCO[C@H]1CN(C)Cc1ccc(C(F)(F)F)cc1	?	.
C[C@H]1CN([C@@H](C)CO)C(=O)c2ccccc2-c2ccccc2CO[C@@H]1CN(C)C(=O)NC1CCCCC1	28	9
COc1ccccc1CNC(=O)C[C@@H]1C[C@@H]2c3cc(NC(=O)Cc4ccncc4)ccc3O[C@@H]2[C@@H](CO)O1	0	2
C[C@H]1CN([C@@H](C)CO)C(=O)c2cc(/C=C/c3ccccc3)cnc2O[C@H]1CN(C)S(=O)(=O)c1ccc(F)cc1	-33	-22
COc1ccc(S(=O)(=O)N(C)C[C@@H]2Oc3ccc(NC(=O)Nc4ccc(F)cc4)cc3C(=O)N([C@@H](C)CO)C[C@@H]2C)cc1	-20	-14
CCN1[C@@H]2c3ccc(-c4ccccc4OC)c(=O)n3C[C@@H]2[C@@H](CO)[C@@H]1C(=O)Nc1nccs1	4	1
C[C@@H]1CN([C@@H](C)CO)C(=O)c2cc(NC(=O)c3ccccc3)ccc2O[C@@H](C)CCCCO[C@@H]1CN(C)S(=O)(=O)c1ccccc1	2	2
C[C@H]1CN([C@@H](C)CO)C(=O)Cc2cc(NS(=O)(=O)c3ccc(Cl)cc3)ccc2O[C@H]1CN(C)Cc1ccccc1	-33	-27
CO[C@@H]1CN(C)C(=O)c2cc(NS(C)(=O)=O)ccc2OC[C@H](C)N(Cc2cocn2)C[C@H]1C	1	4
O=C(C[C@@H]1CC[C@@H]2[C@H](COC[C@H](O)CN2C(=O)c2ccccc2)O1)Nc1ccc(-c2ccccc2)cc1	?	.
CO[C@@H]1CN(C)C(=O)c2cc(NC(=O)NC3CCCCC3)ccc2OC[C@H](C)N(CC2CCOCC2)C[C@@H]1C	10	-1
CCC(=O)N1[C@@H](CO)[C@@H]2c3ccccc3N(C(=O)c3ccncc3)C[C@@H]21	20	19
Next compounds
SMILES	Vaccinia inh	Vaccinia inh Venus
CO[C@@H]1CC[C@@H]2CCOc3c(C#N)cccc3C(=O)N(C)C[C@@H](OC)[C@@H](C)C(=O)N(C)C[C@@H]1O2	13	12
CO[C@H]1CN(C)C(=O)c2ccc(NS(=O)(=O)c3cccc(F)c3)cc2OC[C@@H](C)NC[C@H]1C	-1	13
O=C(c1ccccn1)N1CC2(C1)[C@H](c1ccccc1)[C@H](CO)N2Cc1ccc(Cl)cc1	-18	-13
O=C(C[C@H]1C[C@@H]2c3cc(NC(=O)C4CCOCC4)ccc3O[C@@H]2[C@@H](CO)O1)NCCc1ccccc1	19	17
Cc1ccc(S(=O)(=O)Nc2ccc3c(c2)C(=O)N([C@H](C)CO)C[C@@H](C)[C@H](CN(C)CC2CCCCC2)O3)cc1	-3	8
C[C@@H]1CCCCO[C@@H](CN(C)C(=O)C2CCCCC2)[C@@H](C)CN([C@@H](C)CO)C(=O)c2cc(NC(=O)Nc3ccc(C(F)(F)F)cc3)ccc2O1	-20	-7
COCC#Cc1cnc2c(c1)C(=O)N([C@@H](C)CO)C[C@H](C)[C@@H](CN(C)C(=O)C1CC1)O2	25	13
O=C(C[C@H]1CC[C@H]2[C@@H](COC[C@@H](O)CN2Cc2ccc(Oc3ccccc3)cc2)O1)N1CCN(c2ccccc2)CC1	?	.
Cc1noc(C)c1NC(=O)N[C@H]1C=C[C@@H](CC(=O)N2CCCCC2)O[C@H]1CO	6	3
CCS(=O)(=O)N1[C@H](CO)[C@@H](c2ccccc2)C12CN(C(=O)c1ccccc1F)C2	-4	3
O=C(C[C@@H]1CC[C@H](NC(=O)CCN2CCCCC2)[C@H](CO)O1)NCc1ccc(Cl)c(Cl)c1	-10	-6
C[C@H](CO)N1C[C@H](C)[C@@H](CN(C)C(=O)C2CC2)Oc2cc(C#Cc3ccccn3)ccc2S1(=O)=O	-16	-4
CO[C@H]1CN(C)C(=O)c2ccc(NC(=O)C3CCC3)cc2OC[C@@H](C)N(Cc2ccccn2)C[C@@H]1C	7	16
CC(=O)N[C@H]1CC[C@@H](CC(=O)NCc2ccc(Cl)cc2)O[C@@H]1CO	11	7
C[C@H](CO)N1C[C@H](C)[C@@H](CN(C)S(=O)(=O)c2cn(C)cn2)Oc2ccc(NC(=O)Nc3ccc(C(F)(F)F)cc3)cc2C1=O	23	21
COc1ccc(NC(=O)N(C)C[C@H]2Oc3ccc(NS(=O)(=O)c4ccccc4)cc3C(=O)N([C@H](C)CO)C[C@H]2C)cc1	4	0
CN1C(=O)c2cc(NC(=O)C3CCCC3)ccc2OC[C@@H]2O[C@H](CC(=O)O)CC[C@H]21	-2	10
O=C(c1ccc2c(c1)OCO2)N1C[C@@H]2[C@H](c3ccccc31)[C@H](CO)N2C(=O)CC1CC1	-1	-3
Cc1noc(C)c1S(=O)(=O)Nc1ccc2c(c1)C(=O)N([C@@H](C)CO)C[C@H](C)[C@@H](CN(C)S(=O)(=O)c1cn(C)cn1)OCCCC[C@H](C)O2	19	7
COc1ccc(NC(=O)Nc2ccc3c(c2)C(=O)N([C@H](C)CO)C[C@H](C)[C@H](CN(C)C(=O)Cc2ccccc2)OCCCC[C@@H](C)O3)cc1	7	0
O=C(C[C@@H]1C[C@@H]2c3cc(NS(=O)(=O)c4ccc(F)cc4)ccc3O[C@@H]2[C@@H](CO)O1)NCc1ccncc1	5	9
C[C@H]1CCCCO[C@H](CN(C)C(=O)CCC(F)(F)F)[C@@H](C)CN([C@@H](C)CO)C(=O)c2cc(NS(C)(=O)=O)ccc2O1	-1	2
CCCN1C[C@@H](C)[C@@H](OC)CN(C)C(=O)c2cc(NC(=O)NC3CCCCC3)ccc2OC[C@@H]1C	-13	-9
CO[C@@H]1CN(C)C(=O)c2ccc(NC(C)=O)cc2OC[C@@H](C)N(C(=O)C2CCOCC2)C[C@H]1C	4	-5
C[C@H]1CN([C@@H](C)CO)C(=O)CCCn2nncc2CO[C@H]1CN(C)C(=O)c1cc(-c2ccccc2)on1	0	1
CO[C@@H]1CN(C)C(=O)c2ccc(NC(=O)C3CCC3)cc2OC[C@H](C)N(Cc2nccs2)C[C@@H]1C	-3	0
O=S(=O)(c1ccccc1)N1CCCCN2[C@@H](CO)[C@@H](c3ccc(-c4ccccc4)cc3)[C@@H]2C1	17	2

Quoted at random: 2 records from the list
SMILES	Vaccinia inh	Vaccinia inh Venus
CCCN1C[C@@H](C)[C@@H](OC)CN(C)C(=O)c2cc(NC(=O)NC3CCCCC3)ccc2OC[C@@H]1C	-13	-9
C[C@H](CO)N1C[C@H](C)[C@@H](CN(C)S(=O)(=O)c2cn(C)cn2)Oc2ccc(NC(=O)Nc3ccc(C(F)(F)F)cc3)cc2C1=O	23	21
